Autofluor counter – counter-screen for toxin protease inhibitors: compound fluorescence; compound autofluorescence counterscreen, microsphere flow cytometry; stronger effect = higher value; fluorescence intensity (test concentration not listed); 360,000 tested, 3.1% active; AID 624483;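 active means at least 3 SD above the mean of all compounds, about 16000 in these data; inconclusive means too few beads counted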;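 further: 100 nL of 1 mM stock went into each well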
RN4220 kill – kills Staphylococcus aureus RN4220. S. aureus RN4220 growth, OD600, 16 h. inhibition, % (no concentration beside the values). 330,000 tested, 0.33% active. AID 1259311;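 active means z-score of -3 or lower and OD600 up to 0.18 on both plates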;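 further: plate controls were untreated cells for no effect and reference antibiotic for full effect; stock transfer was 100 nL into about 80 µL; one replicate is shown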
Sa ugtP lethal – growth inhibition of S. aureus ugtP deletion strain; S. aureus RN4220 ugtP deletion, OD600 growth, 16 h; some inactives read as strong as hits; growth inhibition, % (no concentration beside the values); 330,000 tested, 0.54% active; AID 1259309;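 active means z-score under -3 and OD600 up to 0.15 on both plates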;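 further: plate controls were untreated wells for no effect and antibiotic for full effect; wells of about 80 µL received 100 nL stock; the first replicate is given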
Mtb hypoxia rep – Mtb hypoxia fluorescent reporter inhibition. M. tuberculosis hypoxia-regulated fluorescent reporter, fluorescence. fluorescence inhibition, % (concentration not given with the values). AID 1159583. 300,000 tested, 0.1% active;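 active means 35 to 45% if threefold the growth effect, above 45% if 1.5-fold the growth effect; inactive means the rest, general growth blockers included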;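 further: wells of about 50 µL received 100 nL stock; 0% = vehicle wells and 100% = reference inhibitor wells; whole bacteria with a GFP reporter of the hypoxia response; strong numbers were not always called active; many hits fall short of the cut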
PrP 5UTR inh – inhibition of PrP 5' UTR reporter expression | cell-based PrP 5' UTR mRNA reporter, plate reader | inhibition, % (concentration not given with the values) | 340,000 tested, 0.35% active | AID 488862;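 active means every replicate at 50% or more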;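 further: 0 = median of the neutral control wells; tested in H4 reporter cells; numbers are from one replicate; inactives centre near -14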
BJeLR lethal – BJeLR cell viability loss; BJeLR (HRASV12) viability, CellTiter-Glo ATP luminescence, 48 h; reference of the scale not given here; inhibition, % (no concentration beside the values); 300,000 tested, 0.17% active; AID 1554;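 active means replicate mean above 50%; inconclusive means above 50% but judged a plate artefact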;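 further: 50 nL library stock added to about 25 µL; numbers are from one replicate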
Mtb hypoxia rep growth – second read-out of Mtb hypoxia rep, no call of its own (marks repeat the call); growth inhibition, %; measured here: M. tuberculosis growth (absorbance);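 0% = vehicle and 100% = reference antibiotic; read after six days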
An asterisk follows results filed as active; ? = inconclusive; · = not tested or not shown; & = joins results of further samples.

Order of results – Autofluor counter, BJeLR lethal, Mtb hypoxia rep growth, RN4220 kill, PrP 5UTR inh, Mtb hypoxia rep, Sa ugtP lethal
- CCC1=C(OC(=O)N(CC)CC)N2C(=O)OC(=NCC(=O)OC)[C@]2(C)C2C1=CCC1C(=O)N(CC)C(=O)C12 (some centres undefined)
  ·, ·, 4, 5.8, ·, 20, 4
- Nc1c(NC2CCCCC2)c2ccccc2oc1=O
  22176*, 6, -2, -0.4, -22, 4, 1
- Cc1cccnc1NC(=O)CCNC(=O)c1ccc(Cl)cc1
  6969, 7, 1, -0.2, -21, 13, 5
- COc1ccc(CC(NC(C)=O)C(=O)NC2CCN(C(=O)c3cc(OC)c(OC)c(OC)c3)CC2)cc1 (centres undefined)
  4903, 0, -10, 1.4, -5, 12, 7
- O=C(CCn1cccc(C(F)(F)F)c1=O)Nc1cccc(C(F)(F)F)c1
  4716, 16, 10, 1.8, ·, 6, -11
- Cc1ccccc1C(=O)N/N=C1\SCC(=O)N1Cc1ccco1
  4623, -1, ·, ·, -24, ·, ·
- O=C(OCN1C(=O)c2ccccc2C1=O)c1cc(S(=O)(=O)N2CCOCC2)ccc1F
  ·, ·, 2, 2.8, -20, 4, 14
- COc1cc(C(c2c(C)[nH][nH]c2=O)c2c(C)[nH][nH]c2=O)cc(OC)c1OC
  4697, -1, 5, -1.4, -20, 6, 0
- O=C(COC(=O)c1cncc(Br)c1)NCc1ccccc1Cl
  4425, 0, 0, -0.5, 7, 1, 3
- O=C(c1ccco1)N1CCN(S(=O)(=O)c2ccc(S(=O)(=O)NC3CCCCC3)cc2)CC1
  5429, 5, 1, 6.9, -25, -1, 3
- O=C(Nc1nn[nH]n1)c1cccc([N+](=O)[O-])c1
  4241, -3, ·, ·, -10, ·, ·
- O=C1NN=COc2ccccc21
  4210, -1, -12, 4.7, -7, -8, 5
- O=C(CSc1nc2scc(-c3ccccc3)c2c(=O)[nH]1)Nc1ccccc1
  6056, 3, 18, 5.7, -9, 4, -5
- CC1CCN(CCOc2ccc(OCc3ccccc3)cc2)CC1
  10173, -9, ·, ·, -24, ·, ·
- Cn1cc(C(=O)N/N=C/c2cccs2)c2ccccc21
  9778, 0, ·, ·, -42, ·, ·
- COc1ccc(C(=O)CC(=O)C(=O)Nc2ccccc2C(F)(F)F)cc1
  3468, -5, -4, 44, -3, 17, 59
- O=C1CN2Cc3c(ccc(Cl)c3Cl)N=C2N1
  ·, -8, 12, 1.1, ·, -4, -4
- COc1ccc(C(=O)NCCc2c[nH]c3ccccc23)cc1
  4174, -10, 9, 4.3, -65, 0, 11
- O=C(N/N=C/c1coc2ccccc2c1=O)c1cn(-c2ccccc2)nc1-c1ccc(F)cc1
  1868, -13, ·, ·, 6, ·, ·
- O=C(Nc1ccc(Cl)cc1)C1CCN(C(=O)NC2CCCCC2)CC1
  9092, -1, -8, -2.0, -17, -4, -4
- O=C1CCN(CCc2ccccc2)CCN1[C@H](COc1ccccc1)Cc1ccccc1
  4011, -8, 8, -2.2, -16, 1, -10
- O=C(Nc1cccc2ccccc12)C1CCCC1
  3928, 1, 13, 4.9, -24, 5, 8
- Cn1nc([N+](=O)[O-])c2c(-c3nc4ccccc4s3)c(N)n(C3CCCCC3)c2c1=O
  ?, 2, 3, -4.0, 0, 4, -23
- Cc1ccc(CNC(=O)CCC2CCCN(Cc3ccc4cccc(F)c4n3)C2)o1 (centres undefined)
  ·, -3, -6, -4.2, ·, -3, -1
- CC(C)c1ccc(NC(=O)CN2C(=O)COc3ccc(S(=O)(=O)N4CCOCC4)cc32)cc1
  5439, 0, 6, -2.2, -3, 3, 2
- COC(=O)CNC(=O)c1ccc(C)s1
  ·, 0, 8, 1.3, -12, 19, 3
- CC(C)=C1C2CCC1C1C(=O)N(c3ccc4c(c3)OCO4)C(=O)C21 (centres undefined)
  2365, -16, 2, 6.8, -9, 7, 12
- CCCCCCCSc1cc(OC)c(CCNC)cc1OC
  2349, -3, ·, -4.8, -37, ·, -37
- COc1cc(C=NNc2nc(C)cc(=O)[nH]2)cc(OC)c1O
  ·, ·, 4, 1.7, ·, 3, 2
- CN1CCN(C(=O)CCC(=O)c2ccc(F)cc2)CC1
  5044, 10, ·, 1.5, 6, ·, 4
- COc1cc(C(=O)N2CCN(C(=O)C(Cc3cc(C)ccc3C)NC(C)=O)CC2)cc(OC)c1OC (centres undefined)
  22028*, 2, 4, 5.7, 5, 2, 9
- O=C(COC(=O)c1cc(S(=O)(=O)N2CCOCC2)ccc1F)NC1CC1
  ?, ·, -1, 2.9, -1, 5, 6
- CC(C)CNC(=S)NNC(=O)CC(C)O (centres undefined)
  4230, -3, 6, 0.3, -6, 11, 3
- Cc1ccc([N+](=O)[O-])cc1-c1ccc(/C=N/NC(=O)CN2CCOCC2)o1
  6078, -15, ·, ·, -5, ·, ·
- CCN1C(=O)C2C(c3ccc(-c4ccc(F)cc4)c(OC)c3)N[C@@](C)(C(=O)OC)C2C1=O (some centres undefined)
  ·, ·, 10, 1.0, ·, 11, 5
- CC(C)c1cc(NCc2ccccn2)n2c(nc3ccccc32)c1C#N
  3495, -4, 8, -1.8, -22, 5, 5
- COc1ccc2nc(NC3=NC(C(=O)Nc4ccc(C)cc4)CC(=O)N3)nc(C)c2c1 (centres undefined)
  ·, 5, 0, 0.8, ·, -3, 1
- CCOCCCNC(=O)NC12CC3CC(CC(C3)C1)C2
  8503, 9, 9, 0.7, -12, 6, 2
- CN(C)c1ccnc2sc(C(=O)c3ccccc3)c(N)c12
  2425, 3, 6, 4.8, -126, -6, -6
- Cn1c(=O)c2c(nc(Br)n2CC=NNC(N)=S)n(C)c1=O
  ·, ·, -2, -1.6, ·, -9, 0
- c1ccc2nc(-c3ccc(N4CCOCC4)cc3)ccc2c1
  10255, 12, 11, -0.9, 75*, 3, -5
- Cc1nnc(NC(=O)c2ccc(F)c(S(=O)(=O)N3CCOCC3)c2)s1
  4116, ·, 8, 1.3, -15, 9, -2
- CCSC1=C(C#N)C2(CCCCC2)C(C#N)=C(N)N1
  4647, -7, ·, 1.3, -30, ·, 27
- O=C(COC(=O)CNC(=O)c1ccc(Cl)cc1Cl)NC1CCCCC1
  4364, 4, -5, -2.5, 8, -1, 1
- O=C(CSc1nnc2ccccn12)NNC(=O)c1ccccc1F
  2868, ·, -10, 0.0, 3, -2, -1
- CCCCn1c(N)c(N(CC(C)C)C(=O)c2ccc(S(=O)(=O)N3CCC(C)CC3)cc2)c(=O)[nH]c1=O
  ·, -3, 1, 2.8, -6, 5, 5
- CCCCOc1ccc(-c2cnc3ccccc3n2)cc1
  2084, 4, 0, 6.0, 9, 4, 8
- CC12CC(NC(=O)N1c1cccc(C(=O)N3CCN(c4ccccc4)CC3)c1)c1ccccc1O2 (centres undefined)
  4126, -3, ·, -1.7, -27, ·, 4
- O=C(c1ccc(Cl)c([N+](=O)[O-])c1)N1CCN(S(=O)(=O)c2ccc(Cl)cc2)CC1
  3549, ·, 3, 1.4, -3, 3, 4
- COc1ccccc1NC(=O)c1cccc(N2C(=O)C3C4C=CC(C4)C3C2=O)c1 (centres undefined)
  6286, 9, 5, 5.9, -24, 4, 13

The results go on:
Order of results – Autofluor counter, BJeLR lethal, Mtb hypoxia rep growth, RN4220 kill, PrP 5UTR inh, Mtb hypoxia rep, Sa ugtP lethal
- CN1CCN(C(CNC(=O)C(=O)NC2CCCC2)c2ccc(F)cc2)CC1 (centres undefined)
  ·, -2, 0, 1.7, -17, 1, 3
- O=C(c1cc(=O)[nH]c2ccccc12)N1CCc2ccccc2C1
  4143, 0, 15, 1.2, -29, 1, 2
- Nc1ncnc2c1ncn2[C@@H]1O[C@H](CNCC#Cc2ccccc2)[C@@H](O)[C@H]1O
  3425, ·, 8, 3.4, 42, -16, -6
- NC(=O)CC(NC(=O)c1ccccc1)c1ccc(NCCN2CCOCC2)c([N+](=O)[O-])c1 (centres undefined)
  2965, -8, 2, 24, -9, 5, 13
- CC(C)C[C@@H](CSc1ccc(Br)cc1)N1CCN(CC(C)C)CCC1=O
  4099, -14, ·, ·, -26, ·, ·
- COc1nc(N2CCOCC2)nc(-n2cccc2)n1
  9146, -10, 7, 6.1, -27, 6, -13
- CCN1CCN(C(=O)CCN2C(=O)COc3ccc(C)cc32)CC1
  4221, 4, -1, 1.8, -48, 7, 1
- CCn1c(CCNC(=O)c2cccs2)nnc1SCC(=O)c1ccc(OC)cc1
  9738, 8, 8, 4.3, ·, 3, -5
- COc1ccc(Cl)cc1NC(=O)CN1C(=O)NC(C)(Cc2ccc(OC)c(OC)c2)C1=O (centres undefined)
  2972, ·, -7, 1.8, -42, 3, -4
- CCOC(=O)/C=C1\NC(C)(C)Cc2cc(OC)c(OC)cc21
  10551, 2, 3, -2.1, -9, 2, 1
- CN(CC(=O)NCCc1ccc(S(N)(=O)=O)cc1)Cc1ccc(Cl)cc1Cl
  5650, -3, 0, 3.0, -13, 2, 10
- C[C@H](CO)N1C[C@H](C)[C@H](CN(C)CC2CCCCC2)Oc2ccc(NS(=O)(=O)c3ccc(F)cc3)cc2CC1=O
  4838, ·, 14, -4.5, -21, 3, -11
- COc1ccc(CCNC(=O)c2ccc(OCC(=O)N3CCOCC3)c(OC)c2)cc1
  9261, -1, -4, 0.5, 0, 0, 5
- CCc1nn2cc(C(=O)c3cc(C)ccc3O)cnc2c1-c1ccc(F)cc1
  2788, 4, 3, -3.8, -21, 13, 4
- NC(=O)CCN(C1CCCCC1)S(=O)(=O)c1cccc2nsnc12
  3847, -2, -12, 3.7, -6, -16, 13
- CN(C)CCC=C1c2ccccc2Sc2ccc(Cl)cc21
  ·, ·, 8&23, 2.1&-1.1, ·, 19&23, -12&-12
- CCCCCCNC(=O)C(=O)NCCc1ccc(Cl)cc1
  4193, -3, 3, 5.8, -19, -2, 5
- Cc1cccc(C)c1-n1nnnc1SCC(=O)N1CCNC1=O
  5729, ·, 4, -3.0, -39, -1, -1
- CN1C(=O)/C(=N/OC(=O)c2ccccc2)c2ccccc21
  2095, 0, ·, ·, -9, ·, ·
- CCn1c(SCC(=O)Nc2sc3c(c2C#N)CCCC3)nnc1-c1ccncc1
  3740, -6, 8, -1.8, -4, -4, -12
- CCn1c(SCC(=O)NCc2ccccc2)nnc1C(CO)NC(=O)c1ccccc1 (centres undefined)
  5349, -12, 2, 2.4, -18, 4, 8
- COc1ccc2[nH]cc(C(=O)CN3CCN(C4CCCCC4)CC3)c2c1
  2487, 4, 9, 1.4, -5, 3, -2
- Clc1ccc(OCc2nnc3n2CCCCC3)c(Cl)c1
  6299, -12, 2, 1.7, -12, 7, -7
- O=C(O)c1cccc(S(=O)(=O)Nc2cccc(S(=O)(=O)N3CCCC3)c2)c1
  9138, ·, 3, 4.9, -15, 3, 4
- COC(=O)c1sccc1NC(=S)N1CCN(C)CC1
  4793, 7, 9, 1.6, -10, 8, 4
- CC1=CC(C)C(/C=N/n2cnnc2)C(C)C1 (centres undefined)
  3133, 12, ·, ·, 0, ·, ·
- O=C(CNC(=S)N(Cc1ccccc1)Cc1cccnc1)NCCN1CCOCC1
  3925, -1, -2, 2.5, -14, -1, 1
- COC(=O)c1ccc(C)c(N(CCO)CCO)c1
  9979, 4, 7, 3.7, -18, 9, 4
- COc1ccc(S(=O)(=O)NNC(=O)c2csc(-n3nc(C)cc3C(F)(F)F)n2)cc1OC
  4693, 30, ·, 2.9, -2, ·, 0
- CCOc1ccc(NC(=S)Nc2cccnc2)cc1
  4064, 2, ·, ·, -31, ·, ·
- NC(=O)c1ccc(NC(=O)COc2ccc(-n3cnnn3)cc2)cc1
  5706, ·, 3, 6.6, -9, 4, 2
- COc1cc(/C=C/C(=O)OCC(=O)NCCc2ccccc2)cc(OC)c1OC
  4610, 6, 6, 3.6, -21, 13, 2
- Cc1nn(CCC(=O)O)c2nc(-c3cccnc3)cc(C(F)(F)F)c12
  3192, 5, 5, 14, 0, 0, 2
- CN1CCCN(C(=O)COc2ccccc2Br)CC1
  5839, 5, 0, 0.6, -16, 3, -1
- CC(=O)Nc1ccc(N/C=C/C(=O)c2ccc(Cl)cc2)cc1
  ·, -5, 3, 2.2, -33, 11, 0
- COc1ccc(O)c(CN2CCN(CCc3ccccc3)C(CCO)C2)c1 (centres undefined)
  4166, -2, -2, 1.6, -20, 4, 0
- CCCOc1ccccc1/C=C(\C#N)C(=O)Nc1cccc(C)n1
  3935, 9, -9, -0.4, -30, -3, 6
- COc1ccc(C(=O)N=C2SC3CS(=O)(=O)CC3N2Cc2ccc(F)cc2)cc1 (centres undefined)
  4253, 3, 2, 4.3, 5, 8, 9

Bioassay records deposited in PubChem BioAssay by several laboratories.
